Assay outcomes (PubChem)
NS1 function inh: blocks influenza NS1 protein function; S. cerevisiae slowed by influenza A NS1, growth recovery by OD600; Potency, µM (top dose mostly 46.1 µM), for the others: at the highest dose activity, positive = more growth; 270,000 compounds, 0.4% hits; AID 2326; active means well fitted rising curve with a large enough effect; inconclusive means small, poorly fitted or top-dose-only effect; inactive means no such curve, though single readings can be large or run the other way; note: nearly all actives have a fitted effect of over 50% in size
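OD600 was taken as the measure of yeast growth restored by compound in an NS1-expressing S. cerevisiae strain. Cells had been washed out of glucose medium and diluted 1:100 into galactose -URA medium, pH 6.0.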
Marburg entry inh: inhibitors of Marburg virus binding or cell entry | Marburg virus pseudotyped entry inhibition, cell reporter; control for the full effect not named in the record; about a third of the inactives were read at about 46 µM | Potency, µM (titrated, usually from 37.8 µM), inactives show at the highest dose activity change, negative = inhibition, actives largely listed as inhibitors | 300,000 compounds, 1.8% hits | AID 540276; active = well fitted inhibition curve with a large enough effect; inconclusive = small, poorly fitted or top-dose-only effect, or effect the other way; inactive = flat fitted curve, though single readings scatter; tested in HEK293 cells; about a fifth of its hits are not listed in these tables; note: % is set by controls: 0 for no effect and ±100 for the full control effect; luciferase read-out
Cruzain noTriton: inhibitors of Trypanosoma cruzi cruzain without detergent | P25779 | purified cruzain, Z-FR-AMC fluorescence, no detergent | Potency, µM, for the others: max response, negative = inhibition, hits mostly inhibitors | 200,000 compounds, 2.3% hits | AID 1476;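 note: plate controls were enzyme without inhibitor for no effect and buffer without enzyme for full effect; nearly all actives have a fitted effect of over 40% in size; top concentration of the series not given in the record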
Target sequence (P25779 123-467 limits assumed): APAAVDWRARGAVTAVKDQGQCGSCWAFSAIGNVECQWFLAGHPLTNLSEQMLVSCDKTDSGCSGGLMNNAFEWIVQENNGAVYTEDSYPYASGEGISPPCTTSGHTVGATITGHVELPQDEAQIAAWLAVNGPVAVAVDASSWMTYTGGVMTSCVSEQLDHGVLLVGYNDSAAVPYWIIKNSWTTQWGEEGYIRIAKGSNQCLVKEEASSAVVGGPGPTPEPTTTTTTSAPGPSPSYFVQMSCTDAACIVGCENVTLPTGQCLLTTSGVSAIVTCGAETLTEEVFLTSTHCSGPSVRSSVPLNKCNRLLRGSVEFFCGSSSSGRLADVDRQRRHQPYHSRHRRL
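Detergent-free condition (0.00005% Triton X-100) in acetate buffer pH 5.5 with DTT. 1.5 nM enzyme and compound were pre-mixed 15 min, then 2 uM Z-FR-AMC substrate added; reaction progress from fluorescence change between first and third reads (60 s).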
2A StopGo: FMDV 2A StopGo reporter, luciferase signal | Potency, µM (series often up to 57.9 µM), for the others: top-dose signal change, negative = less light | human cells with a luciferase reporter of 2A StopGo recoding; control for the full effect not named in the record | 410,000 compounds, 1.2% hits; active = well fitted falling curve with a large enough effect; inconclusive = small, poorly fitted or top-dose-only effect; inactive = no such curve, though single readings can be large or run the other way; tested in HEK293T cells; note: % is set by controls: 0 for no effect and ±100 for the full control effect; nearly all actives have a fitted effect of over 45% in size; luciferase light after 4 h
SARS PLpro yeast: blocks SARS-CoV papain-like protease in a yeast assay; S. cerevisiae expressing SARS-CoV PLpro, growth rescue; control for the full effect not named in the record; Potency, µM (top dose mostly 32.9 µM), inactives show at the top dose activity, positive = growth rescue; 330,000 compounds, 0.19% hits; active means well fitted rising curve with a large enough effect; inconclusive means small, poorly fitted or top-dose-only effect; inactive means no such curve, though single readings can be large or run the other way; note: 0% is about no effect; nearly all actives have a fitted effect of over 55% in size; growth read by luminescence after 48 h
LASV entry inh: blocks Lassa virus binding to or entry into cells | Lassa virus pseudotype entry inhibition, cell reporter; control for the full effect not named in the record | Potency, µM (doses to about 37.9 µM), inactives show at the highest dose activity change, negative = inhibition, usual class: inhibitors | 300,000 compounds, 1.2% hits; active means well fitted inhibition curve with a large enough effect; inconclusive means small, poorly fitted or top-dose-only effect, or effect the other way; inactive means flat fitted curve, though single readings scatter; tested in HEK293 cells; note: % is set by controls: 0 for no effect and ±100 for the full control effect; nearly all actives have a fitted effect of over 50% in size; luciferase read-out
Cruzain inh Det: blocks cruzain activity in presence of Triton detergent. 200,000 compounds, 0.43% hits. purified cruzain, Z-FR-AMC fluorescence, 0.01% Triton. P25779. Potency, µM, inactives show max response, negative = inhibition, hits mostly inhibitors;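 note: plate controls were neutral wells for no effect and buffer without enzyme for full effect; nearly all actives have a fitted effect of over 40% in size; top concentration of the series not given in the record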
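Compounds were screened in titration against cruzain (1.5 nM) with 0.01% Triton X-100 to counter colloidal aggregation. Activity was the AMC fluorescence increase over 60 s after adding 2 uM Z-FR-AMC at pH 5.5.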
RE007 growth inh: less growth of the S. pombe RE007 Vpr strain. Potency, µM (doses to about 92.2 µM), inactives show at the top dose activity change, negative = less growth. S. pombe RE007 Vpr strain, BacTiter-Glo ATP luminescence, 24 h; control for the full effect not named in the record. 360,000 compounds, 0.21% hits. AID 651644; active = well fitted falling curve with a large enough effect; inconclusive = small, poorly fitted or top-dose-only effect; inactive = no such curve, though single readings can be large or run the other way;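 note: % is set by controls: 0 for no effect and ±100 for the full control effect; nearly all actives have a fitted effect of over 50% in size; the assay follows cell death caused by Vpr and the record does not say whether a fall means rescue or toxicity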
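Fission yeast strain RE007, carrying one chromosomally integrated HIV-1 vpr copy, was seeded at OD 0.01 in PMG+AL medium with 23 nL pinned compound. After 24 h at 30 °C and 99% humidity, viability was read by BacTiter-Glo luminescence.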
An asterisk follows results filed as active; [ ] = another dose, or the depositor's remark. Unless noted, calls come from the whole dose curve; as a rule, active = well fitted curve in the direction sought with a large enough effect; inconclusive = small, poorly fitted or top-dose-only effect, or another doubt; inactive = no such curve, though single readings can be large; an effect the other way counts as inactive or inconclusive. Potency is the fitted concentration of half-maximal effect. Not a hit list; 4.7% or so of the library scored in one or more.

For O=C(O)CSc1nnc(Cc2ccccc2)n1Cc1ccccc1 the results were NS1 function inh 0%, Marburg entry inh inconclusive, Cruzain noTriton -1%, 2A StopGo -7%, SARS PLpro yeast 0%, LASV entry inh 4%, Cruzain inh Det 10% and RE007 growth inh -1%.
Screening Cc1cccc(C)c1NC(=O)C1CCCN(CCCc2ccccc2)C1 (configuration not stated) returned NS1 function inh 8%, Marburg entry inh -20%, Cruzain noTriton -3%, 2A StopGo -22%, SARS PLpro yeast 0%, LASV entry inh -10%, Cruzain inh Det -0.7% and RE007 growth inh -5%.
Screening COc1ccccc1NC(=O)Cn1c(=O)n(-c2ccc(C)cc2)c(=O)c2c1cnn2C returned Marburg entry inh 6%[46.1 µM], Cruzain noTriton 6%, 2A StopGo -26%, LASV entry inh 15%[46.1 µM] and Cruzain inh Det 0.2%.
CCc1cccc(CC)c1N(COC)C(=O)Cn1c(C(C)O)nc2ccccc21 (configuration not stated) was read as NS1 function inh -12%, Marburg entry inh inconclusive, Cruzain noTriton inconclusive, SARS PLpro yeast -4%, LASV entry inh 4%, Cruzain inh Det 4.6% and RE007 growth inh 11%.
Screening Cc1cccc(Cn2cccc2CNS(=O)(=O)c2ccc(C)c(C)c2)c1 returned Cruzain noTriton -6%, 2A StopGo 64%[activator], LASV entry inh 22%[46.1 µM] and Cruzain inh Det -9.2%.
CCOC(CC(=O)NNC(=O)c1c(-c2ccccc2Cl)noc1C)OCC was read as NS1 function inh 2%, 2A StopGo -9%, SARS PLpro yeast 1% and RE007 growth inh -1%.
COc1ccc(C(=O)Nc2ccc(Cl)c(Cl)c2)c(OC)n1 was read as NS1 function inh -3%, Marburg entry inh inconclusive, Cruzain noTriton inconclusive, 2A StopGo 25%, SARS PLpro yeast 4%, LASV entry inh inconclusive, Cruzain inh Det -4.7% and RE007 growth inh -8%.
For Cn1c(SCC(=O)NCc2ccco2)nnc1-c1ccccc1 the results were NS1 function inh 1%[9.22 µM], Marburg entry inh -9%, Cruzain noTriton 8%, 2A StopGo -19%, SARS PLpro yeast -12%, LASV entry inh 3%, Cruzain inh Det 0.6% and RE007 growth inh -1%.
`COc1ccccc1NC(=O)c1ncn(-c2ccccc2)n1` gave Marburg entry inh inconclusive, Cruzain noTriton -3%, 2A StopGo 33%[activator], LASV entry inh inconclusive and Cruzain inh Det -4.4%.
`CNC(=O)COC(=O)c1cc(-c2ccccc2)nn1-c1ccccc1` gave Marburg entry inh -4%[46.1 µM], 2A StopGo -3%, SARS PLpro yeast 0%, LASV entry inh 2%[46.1 µM] and RE007 growth inh -4%.
For COc1ccc(-n2nc(C(=O)NCC(=O)N3CCN(c4ccccc4)CC3)c3ccccc3c2=O)cc1OC the results were NS1 function inh 2%, Marburg entry inh -12%[46.1 µM], 2A StopGo 14%, SARS PLpro yeast -3%, LASV entry inh inconclusive and RE007 growth inh 8%.
`O=C(CCCCCCCCCCC(=O)NCc1cccnc1)NCc1cccnc1` gave NS1 function inh 2%, Marburg entry inh 6%[46.1 µM], 2A StopGo 12%, SARS PLpro yeast 1%, LASV entry inh -4%[46.1 µM] and RE007 growth inh 1%.
O=C1OC(c2cccs2)=N/C1=C\c1ccc(-c2cccc(Cl)c2)o1 was read as NS1 function inh 14%, Marburg entry inh -16%, Cruzain noTriton -85%, 2A StopGo 2%, SARS PLpro yeast 3%, LASV entry inh -22%, Cruzain inh Det -23% and RE007 growth inh 1%.
For COc1ccc(CN2CCNC(=O)C2CC(=O)NC2CCCC2)cc1OC (configuration not stated) the results were NS1 function inh 11%, Marburg entry inh 28%, 2A StopGo -4%, SARS PLpro yeast 4%, LASV entry inh -19% and RE007 growth inh -6%.
For Cc1cc(C)c(Cn2c(C3CC(=O)N(c4ccc(F)cc4)C3)nc3ccccc32)c(C)c1 (configuration not stated) the results were Marburg entry inh inconclusive, Cruzain noTriton inconclusive, 2A StopGo inconclusive, LASV entry inh 0%[46.1 µM] and Cruzain inh Det -16%.
CCOC(=O)c1ccccc1NS(=O)(=O)c1cnn(CC)c1C was read as NS1 function inh -8%, Marburg entry inh inconclusive, 2A StopGo -4%, SARS PLpro yeast 0%, LASV entry inh 16% and RE007 growth inh -18%.
Screening O=C(CCc1ccccc1Cl)Nc1ccc(S(=O)(=O)N2CCOCC2)cc1 returned Marburg entry inh -5%, 2A StopGo -19%, SARS PLpro yeast -2%, LASV entry inh inconclusive and RE007 growth inh 8%.
`CCOc1ccc(-c2cn(-c3ccc(C)cc3)c(SCC(=O)Nc3ccc(C)cc3)n2)cc1` gave Cruzain noTriton 25µM*, 2A StopGo -6%, LASV entry inh -13%[46.1 µM] and Cruzain inh Det 1.9%.
`CCCCOC(=O)c1ccc(NC(=O)c2ocnc2C)cc1` gave NS1 function inh -2%, Marburg entry inh -8%, Cruzain noTriton inconclusive, 2A StopGo 13%, SARS PLpro yeast -4%, LASV entry inh 14%, Cruzain inh Det -12% and RE007 growth inh 1%.
For COc1ccc2c(Sc3ccc(C)cc3)c(C(=O)NC(C)C)[nH]c2c1 the results were Marburg entry inh -25%[46.1 µM], Cruzain noTriton inconclusive, 2A StopGo 31%[activator], LASV entry inh -27%[46.1 µM] and Cruzain inh Det -9.8%.
For CCNC(=O)COC(=O)c1cc(S(=O)(=O)N2CCCCC2)ccc1C the results were NS1 function inh 7%, 2A StopGo -6%, SARS PLpro yeast -1% and RE007 growth inh 1%.
Screening O=C(CN1CCCCC1)N1CCCc2c1c(=O)oc1ccc(OCc3ccccc3)cc21 returned NS1 function inh -14%, Marburg entry inh inconclusive, Cruzain noTriton -5%, 2A StopGo -11%, SARS PLpro yeast -9%, LASV entry inh -1%, Cruzain inh Det -4.2% and RE007 growth inh -1%.
CCn1ccnc1CN1CCN(CC=C(C)C)C(CCO)C1 (configuration not stated) was read as NS1 function inh 7%, 2A StopGo -12%, SARS PLpro yeast 0% and RE007 growth inh 14%.
Screening Cc1ccc2nc(Cl)c(-c3ccccc3)cc2c1 returned Marburg entry inh -2%[46.1 µM], 2A StopGo 29%, LASV entry inh inconclusive and RE007 growth inh -1%.
COc1ccccc1/C=C/C(=O)NCC(=O)N/N=C/c1ccc2c(c1)OCO2 was read as Marburg entry inh -25%[46.1 µM], 2A StopGo -5%, SARS PLpro yeast -5%, LASV entry inh inconclusive and RE007 growth inh -1%.
`CCN(CC)S(=O)(=O)c1ccc2c(c1)c(=O)c(C(=O)NCCCN(C)c1ccccc1)cn2C` gave NS1 function inh -38%, Marburg entry inh -24%, Cruzain noTriton inconclusive, 2A StopGo inconclusive, SARS PLpro yeast -1%, LASV entry inh -30%, Cruzain inh Det -0.3% and RE007 growth inh -5%.
`Cc1c(C(=O)Nc2ccc(F)cc2)oc2ccc(S(=O)(=O)N3CCC4(CC3)OCCO4)cc12` gave NS1 function inh inconclusive, Marburg entry inh 5.8µM*, Cruzain noTriton inconclusive, 2A StopGo 22µM*, SARS PLpro yeast -2%, LASV entry inh inconclusive, Cruzain inh Det -9.5% and RE007 growth inh -1%.
Screening NC(=O)c1oc2ccccc2c1NC(=O)c1ccc([N+](=O)[O-])o1 returned NS1 function inh -26%, Marburg entry inh inconclusive, 2A StopGo -7%, SARS PLpro yeast -11%, LASV entry inh inconclusive and RE007 growth inh 4%.
For CSc1ccc(S(=O)(=O)N2CCC(C(=O)Nc3cccnc3)CC2)cc1 the results were NS1 function inh 4%, Marburg entry inh inconclusive, 2A StopGo 4%, SARS PLpro yeast -2% and RE007 growth inh 6%.
`CO/N=C(/CN1CCCCC1)c1ccc(Cl)cc1` gave NS1 function inh 6%, Marburg entry inh 5%[46.1 µM], 2A StopGo -11%, SARS PLpro yeast 1%, LASV entry inh 0%[46.1 µM] and RE007 growth inh 22%.

Already shown: 2 of the compounds above.
For CSc1ccc(S(=O)(=O)N2CCC(C(=O)Nc3cccnc3)CC2)cc1 the results were NS1 function inh 4%, Marburg entry inh inconclusive, 2A StopGo 4%, SARS PLpro yeast -2% and RE007 growth inh 6%.
`CO/N=C(/CN1CCCCC1)c1ccc(Cl)cc1` gave NS1 function inh 6%, Marburg entry inh 5%[46.1 µM], 2A StopGo -11%, SARS PLpro yeast 1%, LASV entry inh 0%[46.1 µM] and RE007 growth inh 22%.

Further structures:
For COc1ccccc1CN(C)C(=O)c1ccc2c(c1)NC(=O)CS2 the results were NS1 function inh 17%, Marburg entry inh -23%[46.1 µM], Cruzain noTriton 2%, 2A StopGo 12%, SARS PLpro yeast -7%, LASV entry inh -9%, Cruzain inh Det 4.6% and RE007 growth inh 5%.
`COc1cccc(C(=O)N(c2ccc(OC)cc2OC)C2C=CS(=O)(=O)C2)c1` (configuration not stated) gave NS1 function inh -6%, Marburg entry inh 4%, Cruzain noTriton -5%, SARS PLpro yeast 4%, LASV entry inh -6%, Cruzain inh Det 2.4% and RE007 growth inh -9%.
For Cc1ccccc1-c1noc(-c2cc3ccccc3oc2=O)n1 the results were Cruzain noTriton -4%, 2A StopGo 12%, LASV entry inh 24%[46.1 µM] and Cruzain inh Det -1.5%.
`Cc1ccc(N2CC(NC(=O)C(=O)c3c(C)[nH]c4ccccc34)CC2=O)cc1` (configuration not stated) gave Marburg entry inh -20%, 2A StopGo -20%, SARS PLpro yeast 2%, LASV entry inh inconclusive and RE007 growth inh -7%.
COC(=O)c1ccccc1NC(=O)c1ccccc1NS(C)(=O)=O was read as NS1 function inh -39%, Marburg entry inh -6%, Cruzain noTriton 4%, SARS PLpro yeast -3%, LASV entry inh -10%, Cruzain inh Det -4.0% and RE007 growth inh -3%.
`O=C(CCN1C(=O)/C(=C/c2cccs2)SC1=S)Nc1ccc(C(=O)O)cc1` gave NS1 function inh 5%, Marburg entry inh 5%[46.1 µM], 2A StopGo 5%, SARS PLpro yeast -2%, LASV entry inh 16%[46.1 µM] and RE007 growth inh 20%.
For CC(NC(=O)OC(C)(C)C)C(=O)Oc1cc2oc(=O)cc(-c3ccccc3)c2cc1Cl (configuration not stated) the results were NS1 function inh -19%, Marburg entry inh 0%, Cruzain noTriton -14%, 2A StopGo -14%, SARS PLpro yeast -7%, LASV entry inh 20%, Cruzain inh Det -10% and RE007 growth inh -20%.
